Screens as filed in PubChem BioAssay.
GIV-Gai inh = GIV-Galpha-i interaction inhibition; 210,000 compounds, 0.42% hits; percent of control (FP), % (no concentration beside the values); Galpha-i3/FITC-GIV peptide fluorescence polarization, 90 min; active compounds read low; scaled: aluminum fluoride 0%, vehicle 100%; P08753;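 active = replicate mean at 85% of control or lower, very high polarization wells dropped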;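 note: wells of about 15 µL received 100 nL stock; the first replicate is given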
Target sequence (P08753 whole entry, looked up): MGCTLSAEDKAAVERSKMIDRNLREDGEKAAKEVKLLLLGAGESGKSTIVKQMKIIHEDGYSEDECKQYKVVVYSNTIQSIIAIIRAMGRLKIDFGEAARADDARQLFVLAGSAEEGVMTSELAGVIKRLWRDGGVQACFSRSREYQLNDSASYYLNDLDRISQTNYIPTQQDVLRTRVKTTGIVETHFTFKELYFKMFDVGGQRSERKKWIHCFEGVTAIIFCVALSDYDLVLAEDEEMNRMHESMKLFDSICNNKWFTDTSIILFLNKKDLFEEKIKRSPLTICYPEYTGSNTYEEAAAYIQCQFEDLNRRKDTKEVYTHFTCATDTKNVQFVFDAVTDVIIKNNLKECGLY
Active calls of the source: *; & = joins results of further samples. Only part of the results is shown; count on the stated rates, not on these rows.

item	SMILES	GIV-Gai inh
1	O=C(CN1CCN(C(=O)c2ccc(F)c(Cl)c2)CC1)Nc1nnc(-c2ccccc2)s1	101
2	COc1ccc(C2(C(=O)N3CCC(n4nc(-c5ccsc5)ccc4=O)CC3)CC2)cc1	98
3	O=C(Nc1ccc2c(c1)OCO2)N1CCC(N2CCN(Cc3ccc(F)cc3)C(=O)C2=O)CC1	95
4	O=C1c2ccccc2NC(c2ccc(OCc3ccccc3Cl)cc2)N1c1ccc(Cl)cc1 (stereo not drawn)	112
5	CCOc1ccc(NC(=O)CSC2=C(C#N)C(c3ccc(C(C)C)cc3)CC(=O)N2)cc1 (stereo not drawn)	102
6	O=C(NCc1ccccn1)c1cccc(CN2C(=O)C3CCCN3C(=O)c3ccccc32)c1 (stereo not drawn)	104
7	CCOC(=O)c1ccc(-n2c(=S)sc3c(=O)n(CC4CCCO4)c(SCC4OCCO4)nc32)cc1 (stereo not drawn)	112
8	Cc1ccccc1OCC(=O)Nc1cccc(OCc2cc(=O)n3ccccc3n2)c1	105
9	CC(C)c1csc(-c2csc(S(=O)(=O)NCc3ccc4c(c3)OCO4)c2)n1	100
10	CCC1CCCCN1S(=O)(=O)c1cc(-c2ccc(=O)n(C)n2)sc1C (stereo not drawn)	99
11	CC(C)Cn1c(=O)c2nscc2n(CC(=O)NC(C)C)c1=O	104
12	COc1ccc(NS(=O)(=O)c2cc(-c3noc(C)n3)cs2)c(OC)c1	101
13	Cc1cc(/C=c2/sc3nc4ccccc4n3c2=O)c(C)n1-c1ccc(Cl)c(Cl)c1	107
14	Cc1c(N2C(=O)CSC23C(=O)Nc2ccccc23)c(=O)n(-c2ccccc2)n1C (stereo not drawn)	102
15	N#Cc1cc(C#N)c(SCC(=O)Nc2sc3c(c2C#N)CCCC3)nc1N	109
16	O=C(NCC1CCCO1)N1CCC(N2CCN(Cc3ccc(F)cc3)C(=O)C2=O)CC1 (stereo not drawn)	96
17	Cc1nnc(-c2csc(S(=O)(=O)NC3CC3)c2)o1	103
18	CC1(C)SC(=S)N(/N=C/c2cccnc2)C1N(O)C(=O)Nc1ccc(Cl)c(Cl)c1 (stereo not drawn)	98
19	CCOC(=O)c1sc2nc(SCC(=O)NCc3ccccc3Cl)n(CC3CCCO3)c(=O)c2c1C (stereo not drawn)	103
20	O=C1/C(=C/c2c(NCCO)nc3ccccn3c2=O)SC(=S)N1C1CCS(=O)(=O)C1 (stereo not drawn)	126
21	CCOC(=O)c1cnn(-c2ccc(C(=O)N3CCN(c4cc(Cl)ccc4C)CC3)cc2)c1N	104
22	COC(=O)c1ccc(NC(=O)/C(=C\c2ccc3c(c2)OCO3)NC(=O)c2ccccc2)cc1	108
23	O=C(NCC1CCCO1)c1ccc2c(=O)n(CC3CCCO3)c(SCc3cc(=O)n4ccccc4n3)nc2c1 (stereo not drawn)	106
24	COc1cccc(NC(=O)c2ccc(Cn3nc(C)c(S(=O)(=O)N(C)C)c3C)cc2)c1	99
25	CCOC(=O)Cc1nnc2c(Nc3ccc(Cl)cc3)nc3nonc3n12	98
26	Cc1sc(-c2nnc(C(C)C)o2)cc1NS(C)(=O)=O	96
27	CCOC(=O)C1=C(C(=O)OCC)SC2(S1)C(C(=O)OCC)=C(C(=O)OCC)SC1=C2c2cc(C)ccc2N(C(=O)CC)C1(C)C	111
28	CCOC(=O)C1=C(C)NC2=C(C(=O)c3ccccc32)C1c1ccc(C)cc1 (stereo not drawn)	105
29	CCCCCN1C(=O)/C(=C2\SC(=S)N(NC(=O)c3ccncc3)C2=O)c2ccccc21	110
30	Cc1ccc2[nH]cc(CCNC(=O)C3CCCN(c4nccc(C)n4)C3)c2c1 (stereo not drawn)	99

New compounds follow
item	SMILES	GIV-Gai inh
31	Cc1ncc2c(=O)n(CCCN(C)C)c(=O)n(C)c2n1	105
32	Cc1nc(CCNC(=O)[C@H]2CCCN2S(=O)(=O)c2ccccc2F)cs1	97
33	O=C(c1cccnc1)N1CCN(c2nc3ccccc3n2Cc2ccccc2)CC1	103
34	O=C(Nc1ccc(F)cc1F)N1CCCCCC1c1cccs1 (stereo not drawn)	103
35	CCCCCn1c(SCC(=O)Nc2ccc(OCC)cc2)nc2cc(C(=O)NCc3ccco3)ccc2c1=O	106
36	CCOC(=O)C1CCCN(C(=O)c2sc3nc(C)nc(N(CC)CC)c3c2C)C1 (stereo not drawn)	98
37	CCOC(=O)C1CCN(S(=O)(=O)c2cc3c(cc2Cl)NC(=O)CO3)CC1	107
38	Cc1ccc2nc(CCc3ccc(NC(=O)Nc4ccc(C)c(C)c4)cc3)[nH]c2c1	100
39	COc1ccc(C(=O)NCc2c(-c3ccccc3)nc3n2CCS3)cc1OC	99
40	Cc1ccc2c(c1)/C(=C/c1ccccc1)c1cccnc1-2	107
41	Cc1cc(C)c(C#N)c(SCC(=O)NC23CC4CC(CC(C4)C2)C3)n1	106
42	CC1=CCC(C(=O)O)C(c2ccc(Br)cc2)C1 (stereo not drawn)	102
43	CC1CCN(c2ncnc3scc(-c4ccccc4)c23)CC1	123
44	CC1(C)c2ssc(=S)c2-c2ccccc2N1CC(=O)c1ccc(F)cc1	107
45	CNC(C)(C)c1nnnn1-c1c(C)cccc1C	106&106
46	COc1ccc(C(=O)COC(=O)C(Cc2c[nH]c3ccccc23)NC(=O)c2ccco2)cc1 (stereo not drawn)	102
47	CCN(CC)c1ccc(C2N(S(=O)(=O)c3ccc(C)cc3)CCN2S(=O)(=O)c2ccc(C)cc2)cc1	99
48	Cc1cc(C)nc(NC2=NCC(=O)N2c2ccc(-c3ccccc3)cc2)n1	111
49	O=S(=O)(c1ccc(-c2cn3cc(Cl)ccc3n2)cc1)N1CCCCCC1	107
50	Cc1cc(Cl)ccc1N1C(=O)C(N2C(=O)c3ccc([N+](=O)[O-])cc3C2=O)C1c1ccc(F)cc1 (stereo not drawn)	118
51	CCOC(=O)C(C(=O)OCC)(C(Sc1ccccc1)C(C)(C)C1OCCO1)N1C(=O)c2ccccc2C1=O (stereo not drawn)	104
52	CN(C)c1nc2ncn3c(=O)n(CC(=O)Nc4cc(F)cc(F)c4)nc3c2s1	106
53	O=C(C1=C(Nc2ccc3c(c2)OCCO3)c2ccccc2S1(=O)=O)N1CCOCC1	109
54	CC(C)NS(=O)(=O)c1ccc2[nH]c(=O)[nH]c2c1	100
55	Cc1ccc(NS(=O)(=O)c2cc(-c3nc(C)c(C)s3)sc2C)c(C)c1	97
56	O=C(CCn1nnc2cc(-c3noc(C4(c5ccccc5)CC4)n3)ccc21)N1CCOCC1	100
57	CCN(CC)Cc1c(C(=O)OC(C)C)nnn1-c1nonc1N	108
58	COc1ccc(C2=NN3C(C2)c2cc(Cl)ccc2OC3c2ccc(OC)cc2)cc1 (stereo not drawn)	106
59	CC(C)CCCC(C)C1CCC2C3CC=C4CC(OC(=O)CCCl)CCC4(C)C3CCC12C (stereo not drawn)	117
60	CCOC(=O)c1c(CSc2nc(CC(C)C)ccc2C#N)n(C)c2cc(Br)c(OC(C)=O)cc12	102

Further structures.
item	SMILES	GIV-Gai inh
61	CN(C(=O)C1CCN(c2ncc(-c3ccccc3)cn2)CC1)C1CCCCC1	106
62	O=S(=O)(c1ccccc1)N1CCn2cccc2C1c1ccc(Br)cc1 (stereo not drawn)	106
63	CCOC(=O)C1=C(C)N=c2s/c(=C/c3cccc([N+](=O)[O-])c3O)c(=O)n2C1c1cccc(OC)c1 (stereo not drawn)	109
64	COc1ccc(S(=O)(=O)N(C)CC2(C)CCOCC2)cc1Cl	93
65	CCN1CCCC1CNC(=O)Cn1cccc1-c1nnc(C2CCC2)o1 (stereo not drawn)	100
66	Cc1ccc(-c2noc(-c3ccccc3S(=O)(=O)NCCc3ccc(S(N)(=O)=O)cc3)n2)cc1	107
67	CCc1onc(C)c1C1CCCN1Cc1cc(Cl)ccc1O (stereo not drawn)	109
68	COc1ccccc1NC(=O)Cn1cnc2sc(C(=O)N3CCN(c4ccccc4)CC3)c(C)c2c1=O	102
69	CC(C)c1cc(C2CCCN2S(C)(=O)=O)no1 (stereo not drawn)	97
70	O=C(Nc1ccc(Br)cc1)N1CCCCCC1c1cccs1 (stereo not drawn)	106
71	Cc1nc2cc(-c3noc(-c4cc(Cl)ccc4Cl)n3)ccc2o1	96
72	O=C(O)c1ccc(N2C(=O)/C(=C/c3ccc(-c4ccc([N+](=O)[O-])cc4)o3)C=C2c2ccccc2)cc1	125
73	O=c1ccc(-c2ccccc2)nn1CCc1nc(-c2cccc(Br)c2)no1	106
74	CC1(C)c2ccccc2N2CC(=O)N(Cc3ccccc3)C21/C=C/c1ccc(F)cc1 (stereo not drawn)	106
75	COC(=O)Nc1c(-c2ccccc2)nc2ccc(Cl)cn12	103
76	CCN(CC)S(=O)(=O)c1cc(-c2nnc(C3CCCC3)o2)co1	99
77	C=CCOc1ccc2c3c(c(=O)oc2c1)CCCC3	115
78	Cc1ccccc1C(=O)N1CCN(Cc2cc(=O)n3nc(-c4ccccc4)sc3n2)CC1	109
79	CC1CCN(C(=O)c2cc3c(s2)CCC(C(=O)NCCCn2cccn2)C3)CC1 (stereo not drawn)	104
80	C1=C(CCNc2nc(-c3nnc(-c4ccccc4)o3)nc3ccccc23)CCCC1	110
81	O=C(c1ccc(CN2C(=O)C3CCCN3C(=O)c3ccccc32)cc1)N1CCN(c2ccccn2)CC1 (stereo not drawn)	106
82	CCCN1CCN(C(=O)CCc2c(C)nn(-c3ccc4nncn4n3)c2C)CC1	101
83	CCc1ccc(NC(=O)NCCC2CCN(S(=O)(=O)c3ccccc3)CC2)cc1	100
84	COc1ccc(-c2nc(NC(C)=O)c3c(=O)oc4ccccc4c3n2)cc1	111
85	CCn1c(SCC(=O)NCC2CCCO2)nnc1-c1cc2ccccc2o1 (stereo not drawn)	102
86	O=C(NCCC1=CCCCC1)c1ccc(-c2cccnc2)cc1	99
87	N#CC1(C#N)[C@@H]2c3ccccc3C=CN2[C@@H](C(=O)c2ccc(F)cc2)[C@@H]1c1ccc(F)cc1	123
88	O=C(CCc1nc(CSc2n[nH]c(-c3ccccc3)n2)no1)Nc1ccc(F)cc1	108
89	OC(CN1CCN(Cc2ccccc2)CC1)Cn1c2ccc(Cl)cc2c2cc(Cl)ccc21 (stereo not drawn)	101
90	O=C(O)CCc1nn2cc(-c3ccccc3)nc2[nH]c1=O	101

(more compounds)
item	SMILES	GIV-Gai inh
91	O=C(NCc1ccccc1)c1ccc2nc3[nH]c4ccccc4c3nc2c1	109
92	CCC1(CC)NC(=S)N(c2cccc(C)c2C)N1	112
93	Cc1cccc(-c2nc(C3CCN(C(=O)C4CC(=O)N(c5ccc(C)c(C)c5)C4)CC3)no2)c1 (stereo not drawn)	102
94	O=[N+]([O-])c1ccc(S(=O)(=O)N(Cc2ccco2)CC2CCCO2)cc1 (stereo not drawn)	115
95	O=C1/C(=C/c2ccc(-c3ccc(Br)cc3)o2)C=C(c2ccccc2)N1c1cccc(I)c1	121
96	CCc1ccc(C(=O)N2CCN=C2N2CCCC2)cc1	108
97	CCOC(CNC(=O)c1c[nH]c2ccc(S(=O)(=O)N(CC)c3ccc(F)cc3)cc2c1=O)OCC	103
98	CCOc1c(Br)cc(C2C(C(=O)N3CCOCC3)=C(C)NC3=C2C(=O)CCC3)cc1OC (stereo not drawn)	103
99	CCOC(=O)c1cnc2ccccc2c1Nc1cccc2ccccc12	99
100	O=C(CSc1nnc(-c2cc3ccccc3o2)n1-c1ccccc1)Nc1cccc(C(=O)O)c1	105
101	O=C(c1ccc(F)cc1)N1CCc2cc(CNS(=O)(=O)c3ccc(F)cc3)ccc21	107
102	CCCS(=O)(=O)c1nc2ccc(NS(=O)(=O)c3ccc(F)c(C)c3)cc2s1	96
103	COCCCNC(=O)CCc1nc(CS(=O)(=O)c2ccccc2)no1	107
104	O=C(CNC1CCCCC1)N1c2ccccc2Sc2ccc(C(F)(F)F)cc21	108
105	COC(=O)CCCC1C2SCC(NC(=O)c3ccccc3)(C2=O)C2(O)C(NC(=O)c3ccccc3)CSC12 (stereo not drawn)	122
106	COc1ccc(NC(=O)c2ccc3c(=O)n(-c4cc(OC)ccc4OC)c(=S)[nH]c3c2)c(OC)c1	100
107	COc1cc(C(c2c(C)n(C)n(-c3ccccc3)c2=O)c2c(C)n(C)n(-c3ccccc3)c2=O)ccc1O	108
108	CCOC(=O)c1ccccc1NC(=O)Cn1c(C)cc(C)c(-c2nc(-c3ccc(Cl)cc3)no2)c1=O	101
109	COc1cc(-c2nc(C=Nc3ccc(Cl)cc3C)c(O)o2)cc(OC)c1OC	110
110	O=c1oc2ccc3ccccc3c2cc1-c1nc(-c2cccs2)cs1	116
111	CCCc1ccc(S(=O)(=O)N2CCC(N3CCOCC3)CC2)cc1	105
112	COC(=O)c1ccc(C(=O)OC)c(NC(=O)c2cc3c(ccc4ccccc43)oc2=O)c1	109
113	CCN(CC)C(=O)C1CCCN(C(=O)c2ccc(N3CC4CC(C3)c3cccc(=O)n3C4)c(NC(=O)c3ccncc3)c2)C1 (stereo not drawn)	109
114	O=C(NCCc1ccccc1)N1CCC(N2CCN(Cc3ccccc3)C2=O)C1 (stereo not drawn)	98
115	CC(C)Cn1ccnc(N2CCCCC2)c1=O	113
